Compound activity as filed in PubChem.
eIF4H inh – human eIF4H binding inhibitors, primary screen, translation initiation inhibitor project, biochemical, uHTS, fluorescence polarization; Eukaryotic translation initiation factor 4H (Homo sapiens), Q15056; eIF4H fluorescence polarization binding assay; inhibition, % at 35 µM; hit rate 0.94% among 290,000; AID 2012, 2009;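 active = 50% or more with normal probe brightness, or confirmed in later tests; inconclusive = above 50% with abnormal brightness, or retests that disagree; inactive = below 50% or failed in later tests; about a fifth of its hits are not listed in these tables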;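 also: calls also rest on retests at 20 µM and on dose response follow-up; 0% = protein and probe with vehicle and 100% = probe without protein; strong numbers were not always called active; many hits fall short of the cut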
Env fusion inh – inhibitors of HIV-1 Env-driven cell-cell fusion, primary screen, HeLa-JRFL effector, CEM21 target cells, luciferase; inhibition, % at 12.3 µM; hit rate 1.1% among 360,000;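 active = mean replicate inhibition score of at least 50 and every replicate individually at or above 50; inconclusive = only one of the two criteria met; inactive = mean below 50 and not all replicates reaching 50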;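 also: 0% = plate neutral controls and 100% = maraviroc near 300 nM; one replicate is shown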
PABP polyA inh – PABP poly(A) RNA binding inhibitors, primary screen, biochemical, fluorescence polarization, uHTS; hit rate 1% among 290,000; AID 2014, 2009; Polyadenylate-binding protein 1 (Homo sapiens), P11940; inhibition, % at 35 µM;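 active = 50% or more with normal probe brightness, or confirmed in later tests; inconclusive = above 50% with abnormal brightness, or retests that disagree; inactive = below 50% or failed in later tests; about a fifth of its hits are not listed in these tables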;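 also: calls also rest on retests at 20 µM and on dose response follow-up; controls were probe without protein and protein plus probe with vehicle; some compounds called inactive have numbers as strong as hits; many hits fall short of the cut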
Target sequence (P11940 whole entry, looked up): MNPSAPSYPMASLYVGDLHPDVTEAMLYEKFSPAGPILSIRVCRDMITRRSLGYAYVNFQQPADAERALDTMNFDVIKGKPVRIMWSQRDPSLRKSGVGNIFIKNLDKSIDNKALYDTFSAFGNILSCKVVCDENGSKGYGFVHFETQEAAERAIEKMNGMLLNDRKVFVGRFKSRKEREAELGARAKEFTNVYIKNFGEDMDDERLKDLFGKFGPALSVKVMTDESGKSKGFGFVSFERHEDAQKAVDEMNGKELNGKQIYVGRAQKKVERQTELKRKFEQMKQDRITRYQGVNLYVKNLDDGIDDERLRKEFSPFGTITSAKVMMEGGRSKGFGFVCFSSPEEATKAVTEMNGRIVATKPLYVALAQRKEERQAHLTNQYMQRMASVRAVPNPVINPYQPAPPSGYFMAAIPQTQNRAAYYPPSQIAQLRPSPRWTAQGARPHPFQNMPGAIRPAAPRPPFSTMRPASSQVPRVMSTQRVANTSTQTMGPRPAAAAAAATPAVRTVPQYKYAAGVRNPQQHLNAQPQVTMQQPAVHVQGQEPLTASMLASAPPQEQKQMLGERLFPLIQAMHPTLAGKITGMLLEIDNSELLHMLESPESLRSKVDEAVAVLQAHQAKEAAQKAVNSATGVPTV
MT1-MMP act inh – blockers of MT1-MMP proenzyme processing, primary screen, HT1080 RFP-PRO-GFP cells, GFP/RFP fluorescence. GFP/RFP ratio change, % at 20 µM. GFP/RFP ratio fluorescence, overnight; percent of plate control window, DMSO zero. AID 651647, 2012. Matrix metalloproteinase-14 (Homo sapiens), P50281. hit rate 0.061% among 360,000;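 active = GFP/RFP ratio change of at least 30% with cell ATP level not reduced by more than half and red fluorescence within 50% of control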; also: strong numbers were not always called active
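Assay system: HT1080 RFP-PRO-GFP cells | Dosing: 20 µM single dose, 1% DMSO | Incubation: Cells overnight before dosing, compound overnight, 37 °C, 5% CO2 | Evaluation: GFP/RFP fluorescence ratio | Control set: DMSO-only wells and HT1080 RFP-L50D-GFP cell wells as references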
CSC inhib – cancer stem cell viability inhibitors, primary screen, luminescence. hit rate 1.1% among 300,000. inhibition, % at 7.5 µM. AID 2717, 2010. cancer stem cell-like cells viability;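 active = mean at 75% or more and at least half the replicates too; inconclusive = mean and replicates disagree; tested in HMLE shEcad cells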;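 also: 0% = median of negative and 100% = median of positive control wells; the first replicate is given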
Yeast UUG start – modulators of yeast start codon fidelity, primary screen, whole organism, S. cerevisiae, single point, plate reader; S. cerevisiae UUG-firefly luciferase reporter, luminescence/redox ratio; activity score, % at 18.7 µM; hit rate 0.13% among 350,000;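 active = replicate mean at a twofold rise or more, about +100% in these data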;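 also: firefly luciferase made from a UUG start codon reports start codon fidelity; reporter light over untreated wells divided by growth signal over untreated wells; some hits fall short of that in this replicate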
Rce1 inhib – yeast Rce1p protease inhibitors, primary screen, biochemical, fluorescence, cell-free homogeneous; calls only; yeast membranes, quenched prenylated peptide cleavage fluorescence; AID 2563, 2010; hit rate 0.27% among 290,000;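 active = fall in fluorescence gain of 50% or more versus controls, with final raw signal at or below 3038400; inconclusive = same 50% fall but final raw signal above 3038400; inactive = fall in fluorescence gain under 50%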;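 also: plate controls were neutral control wells for no effect and wells lacking membranes for full effect; tested at 10 µM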
Target sequence (Q03530 whole entry, looked up): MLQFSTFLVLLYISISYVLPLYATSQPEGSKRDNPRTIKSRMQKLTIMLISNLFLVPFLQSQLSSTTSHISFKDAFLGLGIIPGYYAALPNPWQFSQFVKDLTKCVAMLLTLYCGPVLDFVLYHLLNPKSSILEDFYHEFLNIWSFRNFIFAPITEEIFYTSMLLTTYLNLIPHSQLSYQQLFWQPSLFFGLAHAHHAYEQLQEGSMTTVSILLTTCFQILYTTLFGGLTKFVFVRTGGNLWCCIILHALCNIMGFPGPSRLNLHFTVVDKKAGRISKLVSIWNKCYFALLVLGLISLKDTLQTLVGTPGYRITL
MT1-MMP act inh RFP – recorded beside MT1-MMP act inh, whose call it bears; RFP signal change, %; measured here: RFP expression control read;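 0 = vehicle wells; hits needed this value within 50% of zero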
The depositor's hits bear a star; i = inactive; ? = inconclusive; . = not tested or not shown; + = active, no number.

SMILES	eIF4H inh	Env fusion inh	PABP polyA inh	MT1-MMP act inh	MT1-MMP act inh RFP	CSC inhib	Yeast UUG start	Rce1 inhib
Cc1ccc(NC(=O)CCS(=O)(=O)c2cc3[nH]c(=O)c(=O)[nH]c3cc2C)cc1	1	1	-8	0	2	-10	-10	i
O=C1CN(C(=O)COC(=O)CCS(=O)(=O)c2ccccc2Cl)c2ccccc2N1	.	.	.	4	5	-5	-15	.
CN(CCO)S(=O)(=O)c1ccc2c(c1)C(=O)c1cc(S(=O)(=O)N(C)CCO)ccc1-2	1	-4	3	-6	2	3	3	i
CC1(C)CC(=O)C2=C(C1)N(c1ccc(F)cc1)C(N)=C(C#N)C2c1cccs1 (configuration not stated)	-1	.	8	0	8	3	-6	i
Cc1ccc(NS(=O)(=O)c2ccc3oc(=O)ccc3c2)cc1Cl	-5	7	0	-1	-13	19	8	i
Nc1nonc1-n1nnc(C(=O)N/N=C/c2ccc(OCc3ccccc3F)cc2)c1CNc1ccccc1	-1	-11	46	2	2	18	-12	i
C/C(=N\NC(=O)c1ccc(CSc2nncn2C)cc1)c1ccc2ccccc2c1	-10	-12	?	9	5	-13	.	i
COc1cc(C(=O)NCCOc2ccccc2C)c(Br)c(OC)c1OC	2	6	8	-4	-4	-4	.	i
Cc1ccc(NS(=O)(=O)c2cccc(C(=O)OCC(=O)NCc3ccco3)c2)cc1	14	.	8	6	5	-2	-1	i
CN(C)c1ccc(C(=O)N2CCC2(C)C(=O)O)cc1 (configuration not stated)	.	21	.	0	5	.	-4	.
O=C(CNC(=O)c1ccc2c(c1)S(=O)(=O)N=C1CCCCCN12)Nc1ccc(F)c(F)c1	.	0	.	0	0	-6	.	i
CC(C)CC(NC(=O)c1ccc(Cl)cc1Cl)C(=O)O (configuration not stated)	-2	-33	-2	0	-8	-9	-10	i
CCOC(=O)C1CCCN(C(=O)c2cn(CC)c3ccc(S(=O)(=O)N(C)C)cc3c2=O)C1 (configuration not stated)	-1	3	2	6	8	-8	-6	.
CC(=O)c1c(C)[nH]c(C(=O)NNC(=O)COc2ccc(Cl)cc2C)c1C	.	12	.	-3	-3	0	-9	i
Cc1nc2c(C)cccn2c(=O)c1NC(=O)COc1ccccc1	.	-1	.	2	-3	.	-13	+
C/C(=N\NS(=O)(=O)c1ccc(C)cc1)c1ccc(C)s1	4	-64	-1	-1	-2	0	-14	i
CSc1ccc(Cl)c(C(=O)NNC(=O)c2csc(N3CCOCC3)n2)c1	.	-34	.	4	0	-10	.	i
O=c1[nH][nH]c(-c2ccccc2)c1C=Nc1ccc(C(F)(F)F)cc1	5	7	7	4	8	-15	-6	i
O=C(O)/C=C/c1coc2ccccc2c1=O	1	-12	6	1	4	-9	.	i
C/C(=N\n1c(C)cc(C)c(C#N)c1=O)c1cccs1	-2	.	-6	-2	0	-10	.	i
Cc1cc(Cl)ccc1NC(=S)N1CCN(Cc2ccc3c(c2)OCO3)CC1	-7	.	28	5	-4	14	2	i
Cc1cc(N/N=C/c2ccccc2[N+](=O)[O-])nc(-n2nc(C)cc2C)n1	40	11	16	3	-8	54	-9	i
CS(=O)(=O)N1CCN(C(=O)COc2ccccc2)CC1	-8	-1	8	3	0	2	-1	i
COc1ccccc1NC(=O)Nc1ccc(NC(=O)c2ccccc2O)cc1	4	13	-2	3	-3	.	-7	i
CCOC(=O)C(NC(=O)C1C(C)N1S(=O)(=O)c1ccc(C)cc1)C(=O)OCC (configuration not stated)	-16	-1	-1	4	9	0	-13	i
C/C(=N\NC(=O)c1cc(Br)ccc1O)c1cccc(NC(=O)c2ccccc2F)c1	4	5	12	3	1	17	-9	i
O=[N+]([O-])c1c(Nc2ccccn2)cc(Cl)c2nonc12	?	-319	?	14	5	96*	.	i
O=C(CCCC(=O)OCC(Cl)=C(Cl)Cl)Nc1cccc(F)c1	1	8	-12	4	3	0	3	i
COc1ccc(-n2nnnc2CNC(=O)C(=O)c2c[nH]c3ccccc23)cc1	.	.	.	1	-1	-2	.	i
COC(=O)C(C)(C)ONC(=O)Nc1ccc(Br)cc1	-13	23	-17	1	-2	4	.	i
COc1cccc(CN2CC(C(=O)NC3CCC3)CCC2=O)c1 (configuration not stated)	-4	-40	-3	-4	1	-6	-1	i
Cc1c(NC(=O)c2ccc(S(=O)(=O)N3CCOCC3)cc2)c(=O)n(-c2ccccc2)n1C	-6	-10	2	2	1	0	.	i
CC1CCCN(C/C=C/c2ccccc2[N+](=O)[O-])C1 (configuration not stated)	-15	2	-8	3	7	16	.	i
Cc1ccc(C(=O)NCC(=O)OCC(=O)/C=C2\N(C)c3ccccc3C2(C)C)cc1C	-8	24	-1	8	10	-7	11	i
CCCC1=NCCn2cccc21	6	.	13	-2	7	0	-14	i
Cc1ccc(NC(=O)c2ccccc2F)cc1S(=O)(=O)N1CCCCCC1	-4	5	36	-5	-8	-14	.	i
Cc1cccc(NC(=O)c2sc(Cl)nc2C)c1C	1	15	14	3	4	-8	.	i
CCOC(=O)c1ccccc1N=N/C(C(C)=O)=C(/C)O	-3	-5	10	0	-3	23	.	i
O=[N+]([O-])c1ccccc1/C=N/N1CCN(c2ccc(Cl)cc2)CC1	3	.	0	3	-6	12	.	i
NC(=S)NNC(=O)c1cccc(Cl)c1	-6	1	0	7	8	3	-18	i
CCc1ccc2[nH]c(=O)c(C(c3nnnn3CC3CCCO3)N3CCCc4ccccc43)cc2c1 (configuration not stated)	1	-73	37	-13	-1	-3	-9	i
COCCNC(=O)c1ccc(CS(=O)(=O)c2ccccc2OC)o1	-10	14	-1	1	3	-2	-11	i
CCCCn1nc(C(=O)Nc2nc3c(s2)CCCC3)c2ccccc2c1=O	2	-5	1	3	1	41	.	.
Cc1ccc(NC(=O)CN2CCC(NC(=O)Cc3ccccc3)CC2)cc1C	5	.	-6	1	-1	-6	-12	i
Cc1[nH]c2ccccc2c1/C=N/Nc1nc(Nc2ccccc2)nc(N2CCOCC2)n1	20	-9	-9	12	-11	33	-17	i
O=C(c1ccc(-c2nnc(Nc3cccc(Cl)c3)c3ccccc23)cc1)N1C[C@H]2C[C@H](C1)c1cccc(=O)n1C2	-5	.	-1	3	-8	-18	-15	i
O=C(Cc1ccc(F)cc1)N/N=C/c1ccncc1	-2	.	1	1	5	-7	-14	i
Cc1nc2c(C)cccn2c(=O)c1NC(=O)c1cccs1	.	8	.	10	4	-10	-6	i
c1ccc(-n2nnnc2Sc2n[nH]c(-c3ccncc3)n2)cc1	10	-57	-1	-5	0	0	-23	i
CCNC(=O)C1(C)CCCN(Cc2noc(-c3c(C)noc3C)n2)C1 (configuration not stated)	.	0	.	5	0	.	-1	.
CCCCC(CC(O)COCC(C)C)C(=O)NNC(=S)Nc1ccccc1 (configuration not stated)	-1	-14	4	5	5	5	-38	i
CC(C)[C@H](NC(=O)c1ccc(F)cc1)C(=O)NC1=NCCS1	-5	2	6	1	4	-25	.	.
CCN(CC)CCNC(=O)c1ccc(NC(=O)c2cccc(-n3cnnn3)c2)cc1	.	3	.	0	-4	-7	-13	i
COc1ccccc1NC(=O)NCCN1CCN(C(=O)Nc2ccccc2OC)CC1	1	-13	5	0	1	-15	.	i
CCc1ccc2c(c1)C(=O)CCC2	.	-6	.	3	3	.	-6	.
OC[C@@H]1[C@@H](c2ccc(Cl)cc2)C(c2cccc(Cl)c2)=NN1c1ccccc1	.	9	.	-2	-7	.	-7	.
CCn1ncc(Br)c1C(=O)Nc1ccc(F)cc1F	-2	.	-1	0	0	-9	-8	i
CC1(C)CC(=O)C(C=NCCN2CCN(C(=O)c3ccc(Br)cc3)CC2)=C(O)C1	-5	-11	2	1	4	-9	-12	i
O=c1oc2ccccc2cc1-c1nc(-c2ccccc2)no1	-2	.	-1	0	2	0	-24	i
COCCNC(=S)NC1CC2CCCC(C1)N2Cc1cccs1 (configuration not stated)	-5	.	-8	-2	-3	2	.	i

(continued)
SMILES	eIF4H inh	Env fusion inh	PABP polyA inh	MT1-MMP act inh	MT1-MMP act inh RFP	CSC inhib	Yeast UUG start	Rce1 inhib
Fc1ccc(-[n+]2nc(Nc3ccccc3)sc2-c2c3ccccc3cc3ccccc23)cc1	-14	23	-7	16	-29	103*	-3	i
CCC1Oc2ccccc2N(CC(=O)N2CC(C)CC(C)C2)C1=O (configuration not stated)	.	33	.	-2	0	.	-26	.
COC(=O)[C@@]12CCCN1[C@H](c1ccc(-c3ccc4c(c3)OCO4)c(OC)c1)[C@H]1C(=O)N(C)C(=O)[C@H]12	.	-17	.	0	2	-3	19	i
COc1ccccc1CN1C(=O)CCC1(C)C(=O)NC1CCCCCC1 (configuration not stated)	12	-8	1	3	3	-1	8	i
C/C(=C\C(=O)C(F)(F)F)Nc1cc(C)cc(C)c1	2	.	3	8	5	-14	-14	i
O=C(O)CCn1c2c(c3ccccc31)CCCC2	-2	7	2	-2	1	-14	-4	i
O=C(NCC1CCCO1)c1ccc(CNS(=O)(=O)c2ccc(F)c(Cl)c2)cc1 (configuration not stated)	-3	-8	27	4	2	-4	.	i
COc1ccc(C(=O)NNC(=O)Cc2nc3nc(C)cc(C)n3n2)cc1	.	-1	.	3	6	-5	-15	i
CC1CCCCC12NC(=O)N(CC(=O)NCCc1ccccc1)C2=O (configuration not stated)	.	-24	.	2	5	-8	-9	.
COc1ccc(Cl)cc1C(=O)NNC(=O)CCNS(=O)(=O)c1ccccc1	.	-3	.	-4	1	-5	-26	.
COc1ccc(NC(=O)CSc2ccccn2)cc1OC	-2	.	-7	2	-2	-9	-20	i
CCCN(Cc1nnc(-c2ccccc2Cl)o1)C(=O)c1cc([N+](=O)[O-])cc([N+](=O)[O-])c1	-4	21	10	2	1	-5	-7	i
CC1CN(CC(O)COC2CCC(C(C)(C)C)CC2)CC(C)O1 (configuration not stated)	-9	-1	-11	2	-3	23	.	.
Cc1ccc(CNC(=O)CCS(=O)(=O)c2cc3c(cc2Cl)NC(=O)CO3)o1	2	7	0	2	5	.	-2	i
COc1ccccc1OCCNC(=O)c1ccc(NC(=O)CC2SC(N3CCCC3)=NC2=O)cc1 (configuration not stated)	.	-27	.	5	0	.	-1	.
C/C(=N\NC(=O)C1CC1)c1ccc(OC(F)F)cc1	2	33	-6	-3	3	.	-14	i
Cc1ccc(CNC(=O)CS(=O)Cc2nc(-c3ccccc3C)oc2C)cc1 (configuration not stated)	-7	-20	6	11	-1	18	-1	i
COc1ccc(CCNC(=O)COc2ccc3c(c2)OCO3)cc1	.	.	.	0	-1	10	-10	.
CC(=O)Nc1ccc(SCCN2CC[C@@H](C(C)(C)C)CCC2=O)cc1	.	-11	.	3	-4	41	-9	.
Cc1ccsc1/C=N/Nc1nc2ccccc2s1	2	.	-3	-9	-5	-11	.	i

Among those listed so far, these have a tert-butyl group.
SMILES	eIF4H inh	Env fusion inh	PABP polyA inh	MT1-MMP act inh	MT1-MMP act inh RFP	CSC inhib	Yeast UUG start	Rce1 inhib
CC1CN(CC(O)COC2CCC(C(C)(C)C)CC2)CC(C)O1 (configuration not stated)	-9	-1	-11	2	-3	23	.	.
CC(=O)Nc1ccc(SCCN2CC[C@@H](C(C)(C)C)CCC2=O)cc1	.	-11	.	3	-4	41	-9	.

A portion of the library; the hit share may differ from the screen's.
